Screening data as filed in PubChem.
Mtb growth: M. tuberculosis H37Rv growth inhibitors, H37Rv strain (AID 1626); M. tuberculosis H37Rv growth inhibition; higher % means a stronger effect; inhibition, % at 10 µM, or IC50 in µM where a hit was titrated; hit rate 0.95% among 220,000;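 active = confirmed in a dose series; inconclusive = inhibition above 80% but not taken into the dose series; inactive = below 80% or under 30% at every dose of the series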;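 note: bacteria incubated seven days before Alamar blue readout; 0% = bacteria only wells and 100% = bacteria with antibiotic wells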
Arbovirus anti: antivirals against arbovirus infection, primary screen, cell-based, full library, 10K replicate subset; hit rate 0.37% among 200,000; arbovirus infection cell-based antiviral screen; inhibition, % at 10 µM;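 active = inhibition from about 30%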;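 note: bluetongue infection of BSR cells; cell survival read as ATP light after 72 h; 0% = infected wells without compound and 100% = uninfected wells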
YopH inh: YopH tyrosine phosphatase inhibitors, primary screen, biochemical, fluorescence Ex485/Em525 | YopH tyrosine phosphatase [Yersinia enterocolitica] | inhibition, %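 (about 10 µM by stock and volumes)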 | hit rate 0.16% among 140,000;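 active = inhibition of 50% or more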;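 note: controls were vehicle for no effect and minimum signal wells for full effect; inactives centre near -20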
Mtb bLac sens: beta-lactam sensitization of Mtb H37Rv, H37Rv; M. tuberculosis H37Rv growth with meropenem, percent inhibition; hits of this screen are not shown here; inhibition, % at 25 µM; hit rate 0.27% among 330,000; AID 434955, 2010;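 active = about 74% or more and at least 40 points above the plate without the antibiotic, then above 30% in a dose series; inconclusive = first-round hits that could not be retested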;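 note: growth measured after seven days incubation then overnight dye step; 0% = bacteria only wells and 100% = bacteria with antibiotic; twin plates without the antibiotic show which effects depend on it; some results filed as inactive read as strong as hits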
RecA intein inh: Mtb RecA intein splicing inhibitors, primary screen, biochemical, fluorescence, HTS | inhibition, %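 (about 9 µM by stock and volumes)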 | cell-free RecA intein splicing | hit rate 0.75% among 290,000 | Protein RecA (Mycobacterium tuberculosis (strain ATCC 25618 / H37Rv)), P9WHJ3 | AID 2221, 2009; in the data active = inhibition above about 30%; inconclusive = no clear call, values can overlap the other calls;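 note: 0% = vehicle wells and 100% = reference inhibitor control wells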
Target sequence (P9WHJ3 whole entry, looked up): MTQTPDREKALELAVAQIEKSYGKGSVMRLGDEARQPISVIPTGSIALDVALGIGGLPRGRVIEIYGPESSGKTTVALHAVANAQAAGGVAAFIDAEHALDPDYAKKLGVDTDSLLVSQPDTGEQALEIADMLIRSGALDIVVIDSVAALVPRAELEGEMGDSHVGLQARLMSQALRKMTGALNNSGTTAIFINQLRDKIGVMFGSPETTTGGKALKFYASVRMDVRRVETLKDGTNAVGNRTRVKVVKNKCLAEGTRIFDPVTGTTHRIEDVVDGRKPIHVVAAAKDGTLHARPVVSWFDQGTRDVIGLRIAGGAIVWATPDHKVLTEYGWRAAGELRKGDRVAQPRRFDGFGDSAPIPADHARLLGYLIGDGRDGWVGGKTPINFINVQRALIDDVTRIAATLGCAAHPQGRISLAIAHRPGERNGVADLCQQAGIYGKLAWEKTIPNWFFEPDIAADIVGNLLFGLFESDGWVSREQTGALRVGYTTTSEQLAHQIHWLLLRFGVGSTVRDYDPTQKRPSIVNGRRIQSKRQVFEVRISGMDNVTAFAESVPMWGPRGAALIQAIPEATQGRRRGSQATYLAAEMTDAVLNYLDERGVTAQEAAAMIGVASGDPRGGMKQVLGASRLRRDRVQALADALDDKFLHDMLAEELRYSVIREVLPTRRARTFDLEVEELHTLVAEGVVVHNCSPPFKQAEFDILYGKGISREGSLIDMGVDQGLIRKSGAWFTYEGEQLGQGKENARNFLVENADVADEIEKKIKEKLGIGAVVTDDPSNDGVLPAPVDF
Arbovirus anti repeat: second read-out of Arbovirus anti, no call of its own (marks repeat the call); inhibition, %; measured here: 10K subset replicate screen; many hits read low in the repeat;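 first of two repeat runs on a subset; 0% = infected and 100% = uninfected wells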
The depositor's hits bear a star; ? = inconclusive; · = no result given.

SMILES	Mtb growth	Arbovirus anti	YopH inh	Mtb bLac sens	RecA intein inh	others
CCC(C)NC(=O)c1cc2c(=O)n(CC)c3ccccc3c2s1 (centres undefined)	·	·	·	10	-0.2
CCc1ccc(C(=O)Cn2ccsc2=N)cc1	·	·	·	8	1.6
O=C(O)C(Cc1ccccc1)N1C(=O)/C(=C/c2cccs2)SC1=S (centres undefined)	-3%	4	·	·	·
CCO[C@@H]1OC(C(=O)Nc2ccccc2)=C[C@H](C2CC2)[C@H]1CCCO	-7%	-1	·	32	0.2
CC1=Nc2ccccc2N=C(NC(=O)CN2CCN(c3ccc(F)cc3)CC2)C1c1ccccc1 (centres undefined)	-1%	·	·	-5	3.0
O=C(C1=C[C@@H](c2ccc3c(c2)OCO3)C[C@@H](OCCCCO)O1)N1CCOCC1	4%	1	·	-14	-6.5
Cc1nc(C(=O)NC2CCOCC2)sc1C1(C)CC(c2ccccc2)=NO1 (centres undefined)	-5%	·	·	-4	-1.0
Nc1nnc(SCc2ccc(F)cc2Cl)s1	-4%	4	-100	-2	2.4
CCOC(=O)C(CC(=O)c1ccccc1)CC(=O)c1ccccc1	·	·	·	4	0.9
NC(=O)c1ccsc1NC(=O)CS(=O)(=O)c1ccccc1	·	·	·	-6	-1.6
O=C1O/C(=C\C(=O)N2CCOCC2)c2ccccc21	50%	8	-40	9	-0.8	Arbovirus anti repeat=-2
CCN(C(=O)COC(=O)c1c(C)noc1C)C1CCS(=O)(=O)C1 (centres undefined)	-4%	0	·	-2	-2.9
CN(C)C(=O)CSc1n[nH]c(-c2ccco2)n1	-8%	1	·	2	0.4
C=CCNC(=O)COC(=O)c1ccc(Sc2nncn2C)c([N+](=O)[O-])c1	-9%	21	·	8	-6.7
O=C(Nc1cccnc1)c1ccc(C(=O)Nc2cccnc2)cc1	0%	-2	·	3	3.6
CCCCC1(Cc2ccc([N+](=O)[O-])cc2)C(=O)N(c2ccccc2)N(c2ccccc2)C1=O	10%	-10	-13	-2	11
CC(C)=CCCC(C)CN1CCC(N2CCC(C(=O)N3CCOCC3)CC2)CC1 (centres undefined)	4%	-21	·	-7	3.4
Cc1ccc(CNC(=O)C(=O)NCC2CCCN2S(=O)(=O)c2cccs2)cc1 (centres undefined)	·	·	·	-10	1.6
COCCNC(=O)NC(=O)COC(=O)C12CC3CC(CC(NC(C)=O)(C3)C1)C2	-3%	2	1	2	0.6
Cc1ccccc1-c1cc2nc(-c3ccc([N+](=O)[O-])cc3)cc(=O)n2[nH]1	-7%	4	·	-3	6.2
COc1ccc(Cc2nnc(NC(=O)c3ccccc3C)s2)cc1	·	·	·	25	2.9
CC(C)Oc1cc(O)c2c(=O)c(-c3ccc(O)cc3)coc2c1	14%	3	-7	8	12	Arbovirus anti repeat=-27
CN1[C@@H]2CC[C@H]1CC(OC(=O)C1C=Nc3ccccc31)C2 (some centres undefined)	-12%	2	-44	2	1.6
Cc1ccc(-n2c(SCc3cn4ccsc4n3)nc3ccccc3c2=O)cc1	17%	-6	-46	36	20
Cc1ccc(-c2nnn(CC(=O)N(c3ccccc3)C(C(=O)NCC3CCCO3)c3ccc(F)cc3)n2)o1 (centres undefined)	6%	6	·	4	2.6
COc1cc(Cn2nnc3ccccc32)cc(Br)c1O	·	·	·	6	4.0
CCOC(=O)Cn1c(C)[n+](C)c2cc(Cl)c(Cl)cc21	0%	25	·	11	-5.9
Cc1cc(NC(=O)Cc2ccccc2[N+](=O)[O-])no1	·	·	·	0	2.1
COc1ccccc1N1CCN(C(=O)/C=C/c2cccs2)CC1	2%	-1	-6	7	1.3
Cc1c(NC(=O)C2CC=CCC2C(=O)O)c(=O)n(-c2ccccc2)n1C (centres undefined)	-5%	3	-7	-1	4.4	Arbovirus anti repeat=-1

Reprinted from the listing (5 entries):
SMILES	Mtb growth	Arbovirus anti	YopH inh	Mtb bLac sens	RecA intein inh	others
CCCCC1(Cc2ccc([N+](=O)[O-])cc2)C(=O)N(c2ccccc2)N(c2ccccc2)C1=O	10%	-10	-13	-2	11
CC(C)=CCCC(C)CN1CCC(N2CCC(C(=O)N3CCOCC3)CC2)CC1 (centres undefined)	4%	-21	·	-7	3.4
Cc1ccc(CNC(=O)C(=O)NCC2CCCN2S(=O)(=O)c2cccs2)cc1 (centres undefined)	·	·	·	-10	1.6
COCCNC(=O)NC(=O)COC(=O)C12CC3CC(CC(NC(C)=O)(C3)C1)C2	-3%	2	1	2	0.6
Cc1ccccc1-c1cc2nc(-c3ccc([N+](=O)[O-])cc3)cc(=O)n2[nH]1	-7%	4	·	-3	6.2

(listing goes on)
SMILES	Mtb growth	Arbovirus anti	YopH inh	Mtb bLac sens	RecA intein inh	others
Cc1cc(NC(=O)COC(=O)CSc2nc3cc(Cl)ccc3n2Cc2ccccc2)no1	1%	2	-13	4	-1.2
COc1ccc(CN(CC(=O)NCc2ccco2)C(=O)CNS(=O)(=O)c2ccc(C)cc2)cc1	·	·	·	-3	1.9
COc1ccc2oc(-c3ccc(NC(=O)c4ccc(N5CCOCC5)c([N+](=O)[O-])c4)cc3)nc2c1	-2%	-30	-28	3	-2.4
Cc1ccc(CC(=S)N2CCOCC2)cc1	-2%	11	·	-1	-1.5
COc1cc(C2NC(=O)NC(C)=C2C(=O)OCC2CCCO2)ccc1O (centres undefined)	-2%	8	0	9	-3.1	Arbovirus anti repeat=4
Cc1ccc(C(CC(=O)N2CCOCC2)c2ccco2)cc1 (centres undefined)	-7%	-3	-6	-7	1.1
Cc1ccc(SC2CCN(C(=O)C3CCC(=O)N(C4CC4)C3)CC2)cc1 (centres undefined)	·	·	·	6	0.5
CCOc1cc(OCC)cc(C(=O)NCCCN2CCOCC2)c1	5%	-2	·	0	2.1
CCOc1ccccc1C1C2=C(COC2=O)Nc2cc3c(cc21)OCO3 (centres undefined)	4%	-10	·	1	-6.3
COc1ccc(-c2nnc(SCC(=O)c3ccc(C)o3)o2)cc1	22%	-2	-33	·	0.2
COc1ccc(N2CC(C(=O)Nc3nnc(SCC(=O)c4ccccc4)s3)CC2=O)cc1 (centres undefined)	12%	17	-7	10	2.3
O=C(Nc1cccc(F)c1)C1CCN(C(=O)Cc2ccccc2)CC1	-7%	7	-10	-16	-4.7
O=S(=O)(N1CCCCC1)N1CCNCC1	-9%	-8	-29	-2	0.0
Cc1cc(C)nc(N/N=C/c2cccc(Cl)c2)n1	6%	1	·	0	·
COc1ccc(N2C(=O)CC(NCc3cccs3)C2=O)cc1 (centres undefined)	-2%	5	-20	-10	-1.9
NC(=O)CSc1nnc(NC(=O)C23CC4CC(CC(C4)C2)C3)s1	·	·	·	?	-0.2
COc1ccccc1NS(=O)(=O)c1ccc2c(c1)NC(=O)C(C)S2 (centres undefined)	·	·	·	2	1.2
COc1ccc2cc(C3(C)NC(=O)N(CC(=O)Nc4c(C)n(C)n(-c5ccccc5)c4=O)C3=O)ccc2c1 (centres undefined)	-2%	4	-24	2	5.7
Cc1cc(NC(=O)c2ccc3c(c2)OCO3)ccc1NC(=O)c1ccccc1	·	·	·	-4	-0.9
CN(CCCNC(=O)c1cccc(N2CCCC2=O)c1)c1ccccc1	2%	8	-26	-1	-2.0
CCc1cccc2c(C(=O)CSc3nncn3-c3ccccc3OC)c[nH]c12	-1%	-13	-30	?	0.4
CCCCNC(=S)N/N=C1\CCCCc2ccccc21	1%	6	-17	-1	3.7
Cc1cc(C)c(NC(=O)C2=COCCO2)c(C)c1	·	·	·	-8	-0.1
O=C(NCCS(=O)(=O)N1CCN(c2ccc(F)cc2)CC1)C12CC3CC(CC(C3)C1)C2	·	·	·	-4	-1.5
CC(=O)N/N=C/c1cc(C)n(-c2ccc(Br)cc2)c1C	7%	-11	-13	86	3.1
O=C(COc1cccnc1[N+](=O)[O-])NC1CCS(=O)(=O)C1 (centres undefined)	-8%	-2	-22	-1	-1.4
Cc1c(C(=O)N2CCCCC2)sc(NC(=O)C23CC4CC(CC(C4)C2)C3)c1C#N	41µM*	·	-27	45	-8.4
COc1ccc(C2CC(c3cccs3)=NN2C(=O)COC(=O)c2cc3ccccc3cc2O)cc1OC (centres undefined)	10%	-3	-34	-7	-0.8
Cc1csc(NC(=O)CCNS(=O)(=O)c2ccc3c(c2)c(=O)n(C)c(=O)n3C)n1	-1%	4	-39	-2	-6.2
CCOC(=O)c1sc(C)c2c1NC(c1ccc(Cl)cc1)NC2=O (centres undefined)	-5%	-6	4	7	-1.0
COC(=O)CCCC1=CC2=C(c3ccccc3)C(=O)C(C)(OC(=O)C3CCCC3)C(=O)C2=CN1C(CO)CO (centres undefined)	-6%	·	·	-2	8.3
CCN1CCN(C(=O)/C(C#N)=C/c2ccc(OC(F)F)cc2)CC1	15%	0	·	0	-0.8
Cc1ccccc1-c1noc(CCC(=O)NC2CCCCC2)n1	·	·	·	-4	-0.5
Cc1ccc(C(=O)CSc2nnc(C(C)C)n2C)cc1C	3%	2	·	-10	-1.4
CC(C)N=C(NC#N)SCc1ccccc1F	-4%	5	-21	3	0.3
O=C(CCNC(=O)Cn1ccc2ccccc2c1=O)NCCC1=CCCCC1	-12%	-1	·	-5	-1.7
COC(=O)C1=C(c2ccc(S(C)(=O)=O)cc2)C[C@@H]2CC[C@H]1N2C(=O)N1CCC(C)CC1	-5%	·	·	3	-1.2
COc1ccc(NC(=O)C(NC(C)=O)C(=O)NCc2ccc(F)cc2)cc1 (centres undefined)	-3%	5	-23	5	-2.0
Cc1nc2c(C)cccn2c1/C(O)=C1\C(=O)C(=O)N(CCN2CCOCC2)C1c1cccs1 (centres undefined)	2%	11	-9	3	4.4
N#C/C(=C\c1ccc(-c2ccccc2)o1)C(=O)Nn1cnnc1	-10%	8	-22	-7	1.5
O=C(c1cc(-c2cccc(O)c2)on1)N1CCCCC1	1%	4	-35	28	-0.1	Arbovirus anti repeat=4
CCc1ccc(NC(=S)N2CCN(c3cccc(C(F)(F)F)c3)CC2)cc1	-3%	13	-35	-4	-0.3
COc1ccccc1CNC(=O)CS(=O)(=O)c1ccccc1	·	·	·	-6	0.2
O=C(c1ccccc1)C1C(c2ccccc2)C1[N+](=O)[O-] (centres undefined)	8%	·	·	-9	3.5
COc1cc2c3c([nH]c2cc1F)C(=O)NCC3	-1%	·	·	-1	-1.1
C#CCNC(=O)C1=C[C@@H](c2ccc3c(c2)OCO3)[C@H](CCCO)[C@@H](OCC)O1	-14%	1	·	13	-1.0
COc1ccc(C2=NN(CC(=O)Nc3cc(C)ccc3C)C(=O)CC2)cc1	-6%	·	·	-7	-0.2
CC(=O)CSc1nc(C(F)(F)F)cc(=O)n1-c1ccccc1	3%	9	-38	13	1.8
Cc1ccc(-c2nn(-c3ccccc3)cc2CN(Cc2ccccc2)C(=O)c2ccco2)o1	-18%	-22	-2	6	8.3
CCc1cccc(CC)c1NC(=O)COC(=O)C1(C)CC1(Cl)Cl (centres undefined)	7%	2	·	-1	-1.9
Cc1[nH]c2ccc(C(=O)NCc3ccccn3)cc2c1C	·	·	·	5	-0.5
COc1ccc(C(C#N)N2CCC(c3ccccc3)=N2)cc1 (centres undefined)	·	·	·	-4	2.3
O=C(NNC1=NS(=O)(=O)c2ccccc21)c1ccccc1	·	·	·	7	0.6
COc1cc(-c2nnc3sc(Cc4ccccc4)nn23)cc(OC)c1OC	-14%	-6	-32	-13	-6.4
OC1CCC(Nc2ncnc3sccc23)CC1 (centres undefined)	·	·	·	-2	-2.0
O=C(O)CC/C(=N/NC(=O)CNC(=O)c1ccc2c(c1)OCCO2)c1ccccc1	·	·	·	0	-0.6
CNc1oc(C)nc1S(=O)(=O)c1ccccc1	0%	3	-33	15	-0.6	Arbovirus anti repeat=5
O=C(COc1coc(CN2CCN(Cc3ccccc3)CC2)cc1=O)Nc1ccccc1	·	·	·	50	-0.2
O=C(CSc1nc2ccccc2s1)NNC(=S)Nc1ccc(Cl)cc1	4%	16	-27	1	2.1
O=C(NCc1cccnc1)c1cc(Sc2ccc(F)cc2F)nc2ccccc12	7%	5	-16	1	0.2
C=CCC1(O)CC(c2ccco2)NC(c2ccco2)C1CCC (centres undefined)	-8%	3	-13	3	-1.0
COc1ccc(C(=O)CCC(=O)NCCc2ccccc2F)cc1	·	·	·	4	-0.9

Structures above containing a CF3 group:
SMILES	Mtb growth	Arbovirus anti	YopH inh	Mtb bLac sens	RecA intein inh	others
CCc1ccc(NC(=S)N2CCN(c3cccc(C(F)(F)F)c3)CC2)cc1	-3%	13	-35	-4	-0.3
CC(=O)CSc1nc(C(F)(F)F)cc(=O)n1-c1ccccc1	3%	9	-38	13	1.8

Only part of the results is shown; the hit share may differ from the screen's.
